From PubChem
Mtb H37Rv: M. tuberculosis H37Rv growth inhibitors, H37Rv strain (AID 1626); M. tuberculosis H37Rv growth inhibition; higher % means a stronger effect; one-dose inhibition, % at 10 µM; IC50 in µM for titrated hits; 220,000 compounds, 0.95% hits;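 active = confirmed in a dose series; inconclusive = inhibition above 80% but not taken into the dose series; inactive = below 80% or under 30% at every dose of the series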;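 note: bacteria incubated seven days before Alamar blue readout; 0% = bacteria only wells and 100% = bacteria with antibiotic wells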
YopH PTP inh: blocks Yersinia enterocolitica YopH tyrosine phosphatase; 140,000 compounds, 0.16% hits; fluorescence Ex485/Em525; inhibition, %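 (about 10 µM by stock and volumes)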;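 active = inhibition of 50% or more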;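 note: controls were vehicle for no effect and minimum signal wells for full effect; inactives centre near -20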
Mtb bLac sens: beta-lactam sensitization of Mtb H37Rv; inhibition, % at 25 µM; AID 434955; 330,000 compounds, 0.27% hits; M. tuberculosis H37Rv growth with meropenem, percent inhibition; hits of this screen are not shown here;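 active = about 74% or more and at least 40 points above the plate without the antibiotic, then above 30% in a dose series; inconclusive = first-round hits that could not be retested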;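 note: growth measured after seven days incubation then overnight dye step; 0% = bacteria only wells and 100% = bacteria with antibiotic; twin plates without the antibiotic show which effects depend on it; some results filed as inactive read as strong as hits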
Arbovirus anti: arbovirus infection inhibition | arbovirus infection cell-based antiviral screen | 200,000 compounds, 0.37% hits | AID 1251 | inhibition, % at 10 µM;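 active = inhibition from about 30%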;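 note: bluetongue infection of BSR cells; cell survival read as ATP light after 72 h; 0% = infected wells without compound and 100% = uninfected wells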
RecA splice inh: blocks M. tuberculosis RecA intein splicing; cell-free RecA intein splicing, fluorescence; AID 2221; 290,000 compounds, 0.75% hits; P9WHJ3; inhibition, %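 (about 9 µM by stock and volumes)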; in the data active = inhibition above about 30%; inconclusive = no clear call, values can overlap the other calls;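 note: 0% = vehicle wells and 100% = reference inhibitor control wells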
Target sequence (P9WHJ3 whole entry, looked up, canonical isoform): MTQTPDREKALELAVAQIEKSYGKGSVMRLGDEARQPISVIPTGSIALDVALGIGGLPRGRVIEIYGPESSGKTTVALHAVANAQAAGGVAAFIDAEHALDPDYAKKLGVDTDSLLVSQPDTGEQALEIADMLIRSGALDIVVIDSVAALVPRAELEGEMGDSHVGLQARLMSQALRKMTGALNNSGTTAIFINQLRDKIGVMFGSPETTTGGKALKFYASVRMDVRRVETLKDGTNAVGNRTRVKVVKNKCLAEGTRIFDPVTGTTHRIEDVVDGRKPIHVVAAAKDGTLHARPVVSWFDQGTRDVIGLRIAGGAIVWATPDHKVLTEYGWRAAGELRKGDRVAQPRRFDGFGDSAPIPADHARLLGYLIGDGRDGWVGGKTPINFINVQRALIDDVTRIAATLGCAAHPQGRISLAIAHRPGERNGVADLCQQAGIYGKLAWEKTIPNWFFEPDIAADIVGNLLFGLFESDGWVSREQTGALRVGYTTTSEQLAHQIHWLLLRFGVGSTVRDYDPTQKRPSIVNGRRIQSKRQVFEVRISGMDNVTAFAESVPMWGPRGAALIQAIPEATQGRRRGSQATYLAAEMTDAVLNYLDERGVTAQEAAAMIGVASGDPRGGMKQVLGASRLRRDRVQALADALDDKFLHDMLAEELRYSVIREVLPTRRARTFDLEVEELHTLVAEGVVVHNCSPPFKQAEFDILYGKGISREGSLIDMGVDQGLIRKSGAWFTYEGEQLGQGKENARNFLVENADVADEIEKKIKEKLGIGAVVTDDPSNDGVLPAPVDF
Arbovirus anti repeat: also measured in Arbovirus anti; calls as there; inhibition, %; measured here: 10K subset replicate screen; many hits read low in the repeat;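 first of two repeat runs on a subset; 0% = infected and 100% = uninfected wells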
* = called active by the depositor; ? = inconclusive; . = not tested or not shown. This is a subset. The share of hits here may be higher or lower than overall.

SMILES | Mtb H37Rv | YopH PTP inh | Mtb bLac sens | Arbovirus anti | RecA splice inh | others
CC1CCC(NC(=O)CN2C(=O)COc3ccc(S(=O)(=O)N4CCCC4)cc32)CC1 (stereo not drawn) | -12% | -14 | 5 | 4 | -1.2
CC1CN(C(=O)CCC(=O)NCc2ccc(F)cc2)c2ccccc2S1 (stereo not drawn) | . | . | -6 | . | 0.0
CN(C(=O)c1cnccn1)c1nnc(-c2cnccn2)s1 | -12% | -29 | -3 | 0 | 1.8
COc1ccc(OC)c(CN2CCCC(CO)C2)c1 (stereo not drawn) | -13% | -15 | 5 | 2 | -0.3
CCc1cccc2c(SCC(=O)NCC3CCCO3)nc(-c3ccc(F)cc3)nc12 (stereo not drawn) | -2% | -44 | 9 | -8 | -0.5
NS(=O)(=O)c1ccc(O)c(NC(=O)c2ccc([N+](=O)[O-])cc2)c1 | -2% | . | -5 | 3 | -8.9
Cc1ccc[n+](CC(=O)Nc2cc(C(F)(F)F)ccc2Cl)c1 | -9% | -42 | 8 | 14 | -1.2
Cc1ccc(SCc2c(C(=O)N/N=C/c3ccccc3)nnn2-c2nonc2N)cc1 | 4% | . | -1 | . | .
Cn1nccc1C(=O)Nc1nnc(C2CC2)s1 | . | . | -8 | . | 1.9
COc1ccc(S(=O)(=O)N(C)c2ccc(C(=O)N3CCN(c4ccccc4)CC3)cc2)cc1OC | . | . | 1 | . | 1.5
CSC1=C(C#N)C(c2ccc(Cl)cc2)C2=C(CC(C)(C)CC2=O)N1 (stereo not drawn) | 0% | . | 1 | -10 | -0.5
CCN1CCN(CCNC(=O)c2cc(Cl)c(NC(=O)C3=C(C)OCCS3)cc2OC)CC1 | . | . | 5 | . | 1.2
C/C(=N\NS(C)(=O)=O)c1ccc(C)cc1 | 5% | 3 | -9 | 14 | -1.2
CC(NC(=O)CCC(=O)c1ccccc1)c1ccc(F)cc1 (stereo not drawn) | . | . | -19 | . | 2.9
COc1ccc(N=C2NC(=O)/C(=C\c3ccco3)S2)cc1 | -2% | . | 3 | -1 | 1.2
COc1ccc(Cc2noc(CN3CCN(C4CCc5ccccc5C4)CC3)n2)cc1OC (stereo not drawn) | -11% | . | 2 | 4 | 1.4
CC(=O)c1c(OC(=O)c2ccc(C)cc2)c2ccccc2n1C | 78% | -15 | 99 | -3 | 6.4
CCC1CCc2sc(C(=O)N3CCCN(C)CC3)cc2C1 (stereo not drawn) | . | . | -16 | . | 2.6
CC(=O)Nc1ccc(NC(=O)C(C)OC(=O)c2ccc(-n3cnnn3)cc2)cc1 (stereo not drawn) | . | . | 3 | . | -2.2
Cc1ccc(CN2CCN(CCCc3ccccc3)CC2CCO)cc1 (stereo not drawn) | 4% | . | 0 | 12 | 1.3
Cc1ncoc1C(=O)N1CCCC(C(=O)c2ccc(-c3ccccc3)cc2)C1 (stereo not drawn) | 1% | . | 5 | -4 | 4.1
COC(=O)c1ccc(COc2ccccc2/C=N/Nc2cccc(C(=O)O)c2)cc1 | 0% | . | . | 2 | .
Fc1ccc(Nc2ncnc3sc4c(c23)CCC4)cc1 | -4% | -44 | 18 | 6 | -0.3
Cc1ccc(S(=O)(=O)N2CCCCC2)cc1NC(=O)Cn1ccc(C(F)(F)F)n1 | -13% | . | -4 | -5 | -1.3
Cc1cc(C)nc(SCc2nc3ccccc3n2C)n1 | 6% | -40 | 6 | 1 | 0.3
CC(=O)c1ccc(OCC(O)CNCc2ccc3c(c2)OCO3)cc1 (stereo not drawn) | -10% | . | 0 | . | 0.1
COc1cc(/C=C(\C#N)c2nc3ccc(C)cc3[nH]2)c([N+](=O)[O-])cc1OC | -9% | -24 | 62 | -3 | 1.4
Cc1cc(=O)[nH]c2c1c(C)nn2-c1ccccc1 | -10% | -15 | -7 | 4 | 2.1
COCCNc1nc2nonc2nc1N(C)Cc1cccc2cnccc12 | -7% | . | -3 | -4 | 0.3
COc1ccc(OC)c(N(C(=O)c2snc(C(N)=O)c2N)C(C(=O)NCC2CCCO2)c2ccc3ncccc3c2)c1 (stereo not drawn) | . | . | 1 | . | 0.1
CC(=O)CCS(=O)(=O)c1ccc(C)c(C)c1 | 5% | -40 | 12 | -4 | -0.5 | Arbovirus anti repeat=-4
CC(C)N1C(=O)CCN(C=O)c2ccccc21 | 7% | . | 3 | 4 | -1.8
CCOc1ccccc1/C=C/c1onc(C)c1S(=O)(=O)N1CCC(C(=O)NC(C)C)CC1 | . | . | 3 | . | 0.5
C=CCn1c(=NC(=O)c2cc(-c3cccs3)nc3ccccc23)sc2cc(S(N)(=O)=O)ccc21 | 72% | -3 | 6 | -11 | 2.4
CCCCNC(=O)COC(=O)c1ccc(NS(=O)(=O)c2ccc3c(c2)OCCO3)cc1 | 12% | -24 | 23 | 7 | -0.6
Cn1c(=O)cc(-c2ccccc2)c2ccccc21 | -11% | 7 | 2 | -14 | -1.1
Cn1c(=O)oc2cc(S(=O)(=O)CCC(=O)N3CCN(c4ccccc4)CC3)ccc21 | . | . | -2 | . | -0.7
COc1ccc(O)c(/C=N/N2CCOCC2)c1 | -6% | . | -4 | . | -6.1
CSc1ccccc1C(=O)Nc1cc([N+](=O)[O-])ccc1C | 3% | . | 5 | -1 | 0.8
Cc1cc(C)c(C)c(OCC(=O)N2CCCCCC2)c1 | -9% | -3 | -8 | -2 | 0.5

Part of the list above in order of molar mass, highest first.
SMILES | Mtb H37Rv | YopH PTP inh | Mtb bLac sens | Arbovirus anti | RecA splice inh | others
CCOc1ccccc1/C=C/c1onc(C)c1S(=O)(=O)N1CCC(C(=O)NC(C)C)CC1 | . | . | 3 | . | 0.5
CCCCNC(=O)COC(=O)c1ccc(NS(=O)(=O)c2ccc3c(c2)OCCO3)cc1 | 12% | -24 | 23 | 7 | -0.6
COc1ccc(O)c(/C=N/N2CCOCC2)c1 | -6% | . | -4 | . | -6.1
Cn1c(=O)cc(-c2ccccc2)c2ccccc21 | -11% | 7 | 2 | -14 | -1.1

Remaining list, next part.
SMILES | Mtb H37Rv | YopH PTP inh | Mtb bLac sens | Arbovirus anti | RecA splice inh | others
C=CCNC(=S)NNc1ncnc2sc3c(c12)CC(C)(C)OC3 | -3% | -40 | -6 | -7 | -4.0
O=C(/C=C/c1c(F)cccc1Cl)Nc1nc2ccccc2[nH]1 | 6% | -19 | 5 | 4 | -1.5
CN(CC(=O)NC1CC(C)(C)NC(C)(C)C1)S(=O)(=O)c1ccc(Br)cc1 | . | . | -5 | . | -2.8
CCOC(=O)C1=C(N)Oc2cc(C)n(C)c(=O)c2C1c1ccncc1 (stereo not drawn) | -15% | -27 | 0 | -1 | -1.1
CCCc1c(C(=O)N/N=C/c2c(OC)ccc3ccccc23)nnn1-c1nonc1N | . | . | 1 | . | -6.8
Cc1[nH]c2ccccc2c1C(=O)C(=O)NCCc1ccc(S(N)(=O)=O)cc1 | -7% | -23 | ? | -3 | 1.4
COC(=O)c1nnc(-c2ccccc2)nc1OC | -3% | -43 | -5 | 5 | 1.7
Cc1cccc(NCc2nc(SCC(N)=O)n[nH]2)c1 | 2% | -18 | -8 | 5 | -0.4
C=CCNC(=O)c1c(Cl)nc(C)c([N+](=O)[O-])c1C | 8% | -4 | -2 | 0 | -1.6
CCN(CC(=O)Nc1c(F)cccc1F)C(=O)c1ccc2c(c1)NC(=O)C(C)S2 (stereo not drawn) | . | . | -4 | . | -3.1
CCCn1c(=O)c(C(=O)Nc2ccccc2)c(O)c2ccccc21 | -7% | -43 | -1 | -20 | 2.2
CCN(CC)S(=O)(=O)c1ccc(NC(=O)COC(=O)CNS(=O)(=O)/C=C/c2ccccc2)cc1 | 0% | -24 | 1 | 2 | -5.0
COc1cc(C(=O)Nc2ccccc2C(=O)Nc2ccccn2)cc(OC)c1OC | . | . | 4 | . | 1.0
COc1ccc(/C=C/C(=O)NCc2cccnc2)cc1 | -2% | -13 | 4 | -3 | 3.9
COc1ccc(-c2cn3c(C)c(C(=O)Nc4cccc(C)n4)sc3n2)cc1 | 65% | -21 | 89 | -4 | .
COc1ccc(NC(C)=O)c(C)c1 | -4% | . | -3 | 12 | 0.6
O=C(O)CCCCCn1c(SCC(=O)N2CCCC2)nc2ccsc2c1=O | 1% | -5 | 1 | 0 | -0.2
Cc1ccc(CC(=O)NC2CCSC2=O)cc1 (stereo not drawn) | -4% | . | -4 | -1 | .
COc1cc(CNCCc2ccccc2)ccc1OCC(=O)NC(C)(C)C | 7% | -17 | -19 | -11 | 1.1
COc1ccc(C2=NOC(C(=O)Nc3c(C)n(C)n(-c4ccccc4)c3=O)C2)cc1OC (stereo not drawn) | 1% | -44 | 2 | 13 | -2.8 | Arbovirus anti repeat=3
CC(=O)Nc1ccc(N/C=C/C(=O)c2ccco2)cc1 | 9% | 0 | -1 | -3 | -2.4
COC(=O)C1CCN(C(=O)COC(=O)c2cc(-c3cccs3)nn2-c2ccccc2)CC1 | . | . | 73 | . | -3.9
Cc1ccc(C(=O)NCc2ccncc2)cc1S(=O)(=O)N1CCCCC1 | . | . | 3 | . | 2.4
NC(=O)CNC(=O)[C@@H]1CC2(CC(c3ccc(Cl)cc3)=NO2)CN1C(=O)c1ccccc1 (stereo partly drawn) | -4% | -1 | 2 | 2 | -2.2
CSc1nnnn1-c1ccc(Cl)cc1 | -3% | . | 0 | -5 | -0.2
CC(C)(C)NC(=O)NC(=O)CSc1ncc(C(F)(F)F)cc1Cl | 1% | 4 | -10 | -3 | 4.9
Cn1c(=O)c2c(nc(CN3CCN(C(=O)c4ccco4)CC3)n2CCCc2ccccc2)n(C)c1=O | . | -4 | 2 | -2 | 1.9
CCC1(CC)C(=O)N(C)C(=O)NC1=NC | -1% | . | -1 | . | 3.5
CC1(CCc2ccccc2)NC(=O)N(Cc2nnc(-c3ccccc3Br)o2)C1=O (stereo not drawn) | 3% | -34 | -1 | -5 | 5.5
COC(=O)c1ccc(C)c(NS(=O)(=O)c2ccc(OC)cc2)c1 | -8% | -14 | -2 | 2 | -4.9 | Arbovirus anti repeat=-7
COc1ccc(CNc2ccc(S(N)(=O)=O)cc2)cc1 | 6% | -3 | 9 | -5 | -3.1
O=C(OC1CCOC1=O)c1ccc(N2CCCC2)c([N+](=O)[O-])c1 (stereo not drawn) | -6% | . | -8 | -1 | 0.2
CCc1nnc(NC(=O)C2CCN(S(=O)(=O)c3ccc(C)cc3)CC2)s1 | 1% | . | 17 | -12 | -4.0
COc1cccc(/C=C/C(=O)OCC(=O)c2ccc(S(=O)(=O)N3CCCCC3)cc2)c1OC | . | . | -1 | . | -0.9
Cc1ccnc(NC(=O)CNC(=O)c2ccc(C)s2)c1 | . | . | -17 | . | 1.8
COc1ccc(C(CNC(=S)NCc2ccccc2)N2CCCC2)cc1 (stereo not drawn) | -7% | . | 9 | -10 | 7.4
COC(=O)C1=C(c2cccc(OC)c2OC)C[C@@H]2CC[C@H]1N2C(=O)N1CCC(C)CC1 | -1% | . | -1 | . | -0.4
CCCC(c1nnnn1CCC(C)C)N1CCC(C(N)=O)CC1 (stereo not drawn) | 5% | -39 | -9 | 4 | 0.0
CCN(C(=O)CSc1nnc(Cc2cccc3ccccc23)n1N)C1CCS(=O)(=O)C1 (stereo not drawn) | -10% | -19 | -6 | 11 | 2.1
Cc1ccccc1NC(=O)c1cccc(S(=O)(=O)N2CCOCC2)c1 | . | . | 0 | . | 1.7

2 entries drawn at random from the list so far:
SMILES | Mtb H37Rv | YopH PTP inh | Mtb bLac sens | Arbovirus anti | RecA splice inh | others
COc1ccc(C(CNC(=S)NCc2ccccc2)N2CCCC2)cc1 (stereo not drawn) | -7% | . | 9 | -10 | 7.4
COC(=O)c1nnc(-c2ccccc2)nc1OC | -3% | -43 | -5 | 5 | 1.7

Returning to the listing, starting two compounds before the break.
SMILES | Mtb H37Rv | YopH PTP inh | Mtb bLac sens | Arbovirus anti | RecA splice inh | others
CCN(C(=O)CSc1nnc(Cc2cccc3ccccc23)n1N)C1CCS(=O)(=O)C1 (stereo not drawn) | -10% | -19 | -6 | 11 | 2.1
Cc1ccccc1NC(=O)c1cccc(S(=O)(=O)N2CCOCC2)c1 | . | . | 0 | . | 1.7
CSCCC(NC(=O)c1cc([N+](=O)[O-])ccc1Cl)C(=O)O (stereo not drawn) | 5% | -39 | -3 | 12 | -2.4
CCC(=O)N1CCc2cc(S(=O)(=O)NCCCOC)ccc21 | -7% | -15 | -1 | 4 | 0.0
CCCc1n[nH]c2c1/C(=N\OCC)CC(C)(C)C2 | 3% | . | 14 | . | -3.3
CS(=O)(=O)NNC(=O)C1Cc2c(ccc3ccccc23)O1 (stereo not drawn) | . | . | 2 | . | -0.3
O=C(CSc1nc(C2CC2)nc2ccccc12)N1CCc2ccccc2C1 | . | -26 | -5 | 12 | -0.4
CC(CN(C)Cc1ccccc1)OC(=O)c1cccc(F)c1 (stereo not drawn) | 1% | -25 | 1 | 1 | 0.0
CC(C)(C)N(NC(=O)Nc1ccc(Cl)cc1)C(=O)c1ccccc1 | -5% | 2 | -8 | 4 | -1.1
